RecA intein inh = blocks M. tuberculosis RecA intein splicing | inhibition, %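 (about 9 µM by stock and volumes)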 | actives 0.75% (n = 290,000) | cell-free RecA intein splicing, fluorescence | AID 2221; in the data active means inhibition above about 30%; inconclusive means no clear call, values can overlap the other calls;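 further: 0% = vehicle wells and 100% = reference inhibitor control wells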
Target sequence (P9WHJ3 whole entry, looked up): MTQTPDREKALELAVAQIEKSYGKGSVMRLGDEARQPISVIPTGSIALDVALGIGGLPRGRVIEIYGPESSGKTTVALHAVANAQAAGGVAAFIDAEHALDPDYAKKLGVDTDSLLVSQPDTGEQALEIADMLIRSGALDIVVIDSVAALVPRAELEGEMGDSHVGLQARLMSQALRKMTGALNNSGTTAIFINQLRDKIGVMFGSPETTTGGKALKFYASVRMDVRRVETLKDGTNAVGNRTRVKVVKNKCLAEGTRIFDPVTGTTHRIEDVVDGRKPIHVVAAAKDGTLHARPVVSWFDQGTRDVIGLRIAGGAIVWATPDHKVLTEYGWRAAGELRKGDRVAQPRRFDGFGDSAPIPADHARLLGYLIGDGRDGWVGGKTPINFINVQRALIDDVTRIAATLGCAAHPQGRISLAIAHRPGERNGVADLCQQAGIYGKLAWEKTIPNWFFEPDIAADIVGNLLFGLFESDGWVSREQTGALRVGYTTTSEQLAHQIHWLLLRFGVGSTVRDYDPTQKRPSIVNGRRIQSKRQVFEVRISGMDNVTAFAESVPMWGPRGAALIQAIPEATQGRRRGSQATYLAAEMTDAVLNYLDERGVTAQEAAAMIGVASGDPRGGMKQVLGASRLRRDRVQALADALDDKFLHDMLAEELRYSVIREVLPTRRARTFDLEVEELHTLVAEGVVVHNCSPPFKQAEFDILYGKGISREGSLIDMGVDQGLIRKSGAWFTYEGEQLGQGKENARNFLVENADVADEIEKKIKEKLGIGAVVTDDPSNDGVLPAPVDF
YopH PTP inh = YopH (Yersinia) phosphatase inhibition; inhibition, %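 (about 10 µM by stock and volumes)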; fluorescence Ex485/Em525; actives 0.16% (n = 140,000);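 active means inhibition of 50% or more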;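 further: controls were vehicle for no effect and minimum signal wells for full effect; inactives centre near -20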
Arbovirus anti = blocks arbovirus infection. arbovirus infection cell-based antiviral screen. inhibition, % at 10 µM. actives 0.37% (n = 200,000). AID 1251;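 active means inhibition from about 30%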;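 further: bluetongue infection of BSR cells; cell survival read as ATP light after 72 h; 0% = infected wells without compound and 100% = uninfected wells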
Mtb bLac sens = beta-lactam sensitization of Mtb H37Rv; M. tuberculosis H37Rv growth with meropenem, percent inhibition; hits of this screen are not shown here; inhibition, % at 25 µM; actives 0.27% (n = 330,000); AID 434955;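 active means about 74% or more and at least 40 points above the plate without the antibiotic, then above 30% in a dose series; inconclusive means first-round hits that could not be retested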;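 further: growth measured after seven days incubation then overnight dye step; 0% = bacteria only wells and 100% = bacteria with antibiotic; twin plates without the antibiotic show which effects depend on it; some results filed as inactive read as strong as hits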
Mtb H37Rv = M. tuberculosis H37Rv growth inhibitors, H37Rv strain (AID 1626). M. tuberculosis H37Rv growth inhibition; higher % means a stronger effect. inhibition, % at 10 µM; hits with a dose series show IC50 in µM. actives 0.95% (n = 220,000);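 active means confirmed in a dose series; inconclusive means inhibition above 80% but not taken into the dose series; inactive means below 80% or under 30% at every dose of the series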;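 further: bacteria incubated seven days before Alamar blue readout; 0% = bacteria only wells and 100% = bacteria with antibiotic wells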
Arbovirus anti repeat = recorded beside Arbovirus anti, whose call it bears; inhibition, %; measured here: 10K subset replicate screen; many hits read low in the repeat;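 first of two repeat runs on a subset; 0% = infected and 100% = uninfected wells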
* = called active by the depositor; ? = inconclusive; . = not tested or not shown. An excerpt; count on the stated rates, not on these rows.

SMILES	RecA intein inh	YopH PTP inh	Arbovirus anti	Mtb bLac sens	Mtb H37Rv	others
COc1cc(NC(=O)CN2C(=O)COc3ccc(S(=O)(=O)N4CCCC4)cc32)cc(OC)c1	3.3	.	.	-1	.
CCOC(=O)c1cnn(Cc2ccccc2Cl)c1N	2.8	-10	4	-3	-1%
CCOc1ccccc1C(=O)Nc1cc(C(=O)NCCc2ccccc2)ccc1Cl	-2.3	2	2	5	4%
CCN1C(=O)/C(=C\N2CCN(C)CC2)SC1=S	3.0	-27	-1	-9	-11%
C/C(=C1/SC(N2CCCC2)=NC1=O)c1ccc(Br)cc1	8.2	-6	1	99	?
Cc1ccc(C(=O)Oc2ccccc2C(=O)N2CCOCC2)cc1	1.7	-8	11	-4	-4%
Cc1cccc(C)c1-n1c(C)cc(/C=N/NC(=O)c2ccncc2)c1C	-0.1	-29	0	98	?
COc1cc(C(C[N+](=O)[O-])c2c(C)[nH]c3ccccc23)cc(OC)c1OC (stereo not drawn)	-0.3	-9	-17	8	-13%
O=C(/C=C\c1ccc(-c2ccccc2)o1)c1ccccc1	4.2	-23	5	90	6%
CSCCC(NC(=O)c1ccccc1Br)C(=O)N1CCCCCCC1 (stereo not drawn)	2.8	.	.	-4	.
CCOC(=O)C1=C(C)Nc2nnnn2C1c1c[nH]c2ccccc12 (stereo not drawn)	6.4	-23	9	3	4%
CCOC(=O)CC(=O)Nc1ccsc1C(N)=O	0.2	.	.	-1	1%
O=C(NCCNC(=O)c1cccnc1)c1ccc(Br)cc1	2.8	.	.	-14	.
O=C(c1cccs1)N1CCN(c2nnc(-c3ccccc3)c3ccccc23)CC1	5.4	.	-6	11	31%
CSCCC(=O)N1CCC(n2nccc2NC(=O)CCc2ccccc2)CC1	-2.5	.	.	1	.

By substructure: the compounds so far with an aryl methoxy group (two)
SMILES	RecA intein inh	YopH PTP inh	Arbovirus anti	Mtb bLac sens	Mtb H37Rv	others
COc1cc(NC(=O)CN2C(=O)COc3ccc(S(=O)(=O)N4CCCC4)cc32)cc(OC)c1	3.3	.	.	-1	.
COc1cc(C(C[N+](=O)[O-])c2c(C)[nH]c3ccccc23)cc(OC)c1OC (stereo not drawn)	-0.3	-9	-17	8	-13%

(cont.)
SMILES	RecA intein inh	YopH PTP inh	Arbovirus anti	Mtb bLac sens	Mtb H37Rv	others
CC12CC3(C)CC(C)(C1)CC(C(=O)NCC(=O)O)(C2)C3	-0.1	.	-2	-3	-2%
COc1ccc(-c2nc(C#N)c(NCCCN(C)C)o2)cc1OC	1.6	-6	1	-3	1%
C/C(=N\NC(N)=O)c1cc(Cl)cc(Cl)c1O	-3.5	.	.	-4	-12%
O=C1CN(C(=O)c2ccccc2Cl)c2ccccc2N1	-4.2	.	.	2	.
CC(C)N1CCc2c(sc(NC(=O)c3ccc(S(=O)(=O)N(C)CC4CCCO4)cc3)c2C(N)=O)C1 (stereo not drawn)	0.6	.	.	?	.
CC(=O)Nc1ccc(OCC(=O)N2CCC(Cc3ccccc3)CC2)cc1	1.2	.	-15	7	3%
CC1(c2ccco2)NC(=O)NC1=O (stereo not drawn)	-1.6	-24	3	-8	-3%
Cc1nc2ccccc2n1/N=C/c1cccnc1	-0.8	10	-6	-1	-6%
COc1ccc(-c2noc(CSc3nc(-c4ccccc4)cc(=O)[nH]3)n2)cc1	-5.2	-1	18	-1	3%
CCOC(=O)C1CCN(Cc2ccc(F)cc2F)CC1	1.3	4	4	-3	-3%
CC(=O)Nc1ccc(NC(=O)CN(C)S(=O)(=O)c2ccc3nc(C)sc3c2)cc1	.	.	14	-2	-1%
CCN(CC)C(=O)CSc1nnc(-c2ccc(F)cc2)n1N	8.7	-3	3	-4	3%
O=C(c1ccccc1)N1CCN(C(=O)c2ccccc2)C1c1ccccc1	-4.6	-17	4	-5	3%
Cc1c(Cl)cn2c(=O)cc(CN(C)Cc3nc4ccccc4c(=O)[nH]3)nc2c1Cl	-2.3	.	6	3	1%
O=C1CCCc2c1nc(-c1ccc(F)cc1)n2O	-1.0	.	.	-9	0%
CCOC(=O)c1cnc2c(C(=O)OC)cccc2c1NCc1cccnc1	-1.8	.	1	45	77%
CN(C)c1ccc(/C=N/NC(=O)CNC(=O)c2ccncc2)cc1	-1.3	.	.	1	.
COc1ccc(N2C(=O)CN=C2Nc2cccc(C)c2C)cc1OC	-0.4	-43	2	-4	-5%
Cc1c(C(=O)c2ccc(N(C)C)cc2)c2ccccn2c1CCC#N	-3.1	.	0	8	5%
Cc1nn(-c2ccccc2)c(N)c1C1(O)C(=O)N(C(C)C)c2ccccc21 (stereo not drawn)	4.5	-23	-21	3	3%
O=C(Nc1ccc(Cl)c(C(F)(F)F)c1)c1ccncc1	3.9	.	2	-6	-4%
O=C1C(=O)N(c2ccccn2)C(c2cccc([N+](=O)[O-])c2)/C1=C(/O)c1ccc(Br)cc1 (stereo not drawn)	2.5	.	.	3	.
Cc1ccc(Cn2c(C3CCCN3c3nc(-c4ccc(F)cc4)cs3)nc3cc(Cl)c(Cl)cc32)cc1 (stereo not drawn)	0.1	.	.	16	-2%
CCOc1ccc(N=Cc2c(O)n(Cc3ccccc3)c(=S)[nH]c2=O)cc1	-3.3	.	.	96	73%
O=C(CNC(c1ccccc1)c1ccccc1)Nc1ccccc1F	5.3	.	.	23	.
O=S(=O)(c1ccccc1)N1CCN=C1SCc1cccc(Cl)c1	-2.0	-14	-19	15	14%
O=C(c1ccncc1)C12CN3CN(CN(C3)C1)C2	-1.7	-24	15	-12	.
CCCOC(=O)c1ccc(NC(=O)CCC(=O)OCC)cc1	-2.0	-23	-1	98	<0.2µM*	Arbovirus anti repeat=2
O=C(Cc1cccs1)N1CCN(S(=O)(=O)c2cc(Cl)ccc2Cl)CC1	0.4	.	.	-4	.
COc1ccc(C2C(C(=O)OC(C)C)=C(C)N=c3s/c(=C\c4cccs4)c(=O)n32)cc1 (stereo not drawn)	0.4	-30	-6	1	10%

Reprinted from the listing for reference:
SMILES	RecA intein inh	YopH PTP inh	Arbovirus anti	Mtb bLac sens	Mtb H37Rv	others
CCOC(=O)c1cnc2c(C(=O)OC)cccc2c1NCc1cccnc1	-1.8	.	1	45	77%
CN(C)c1ccc(/C=N/NC(=O)CNC(=O)c2ccncc2)cc1	-1.3	.	.	1	.
COc1ccc(N2C(=O)CN=C2Nc2cccc(C)c2C)cc1OC	-0.4	-43	2	-4	-5%
Cc1c(C(=O)c2ccc(N(C)C)cc2)c2ccccn2c1CCC#N	-3.1	.	0	8	5%
Cc1nn(-c2ccccc2)c(N)c1C1(O)C(=O)N(C(C)C)c2ccccc21 (stereo not drawn)	4.5	-23	-21	3	3%
O=C(Nc1ccc(Cl)c(C(F)(F)F)c1)c1ccncc1	3.9	.	2	-6	-4%

Continued.
SMILES	RecA intein inh	YopH PTP inh	Arbovirus anti	Mtb bLac sens	Mtb H37Rv	others
Cc1cc(C)nc(NS(=O)(=O)c2ccc(NC(=S)NC(=O)C(C)(C)C)cc2)n1	0.8	-13	-1	-4	6%
O=C1[C@@H]2[C@H](C(=O)N1n1cnnc1)[C@H]1C=C[C@@H]2C1	0.4	-29	1	-4	-6%
COCCNC(=S)N1CCN(c2nc(-c3ccc(F)cc3)cs2)CC1	1.6	.	.	7	.
Cc1cccc(NC(=O)c2nc[nH]c2C(=O)Nc2cccc(C)c2)c1	-1.0	.	-7	91	?
COc1ccc(OC)c(CC(=O)O)c1	-1.6	-30	8	-5	-5%
CCN1C(=O)[C@@H]2[C@@H](c3ccc(-c4ccc(Cl)c(Cl)c4)c(OC)c3)N3CCCC[C@@]3(C(=O)OC)[C@@H]2C1=O	3.6	.	.	1	.
COc1cc(C(=O)N2CCN(C(=O)C3CC3)CC2)cc(OC)c1OC	3.5	-47	-5	-9	7%
CCOc1c(CNCCN2CCOCC2)cccc1OC	.	-13	-4	-5	-2%
CC(=O)c1ccc(N2CCN(C(=O)Nc3ccc(C)cc3)CC2)cc1	2.6	.	-1	0	1%
CCc1noc(C)c1C(=O)OCC(=O)Nc1ncc(Cl)cc1Cl	3.2	.	.	?	.
O=C(/C=C/c1ccc(Cl)cc1Cl)Nc1ccc(CN2CCOCC2)cc1	-2.0	-3	-7	15	15%
COc1ccc(C(CC(=O)N2CCCCC2)c2c(OC)cc(OC)c3ccc(=O)oc23)cc1 (stereo not drawn)	-0.8	.	.	-1	3%
Cc1cccc(NC(=O)C2CCCN(S(=O)(=O)c3cccc4nsnc34)C2)c1 (stereo not drawn)	-1.7	-26	7	-2	2%
CC1SC2(NC1=O)C1CC3CC(C1)CC2C3 (stereo not drawn)	2.4	.	-13	5	-1%
Cc1cc(Cl)ccc1NC(=O)C1CCN(S(C)(=O)=O)CC1	-1.1	.	-2	-6	-2%
Cn1c(=O)[nH]c(=O)c2c1nc(NCc1ccco1)n2CCCc1ccccc1	1.9	-20	-1	.	0%
Cc1cc(NC(=O)CSc2nnc(C3CC3)n2-c2ccccc2)no1	1.8	.	-6	-2	1%
COc1ccc(CCN2CC(C(=O)O)CC2=O)cc1 (stereo not drawn)	1.4	11	7	-15	-9%
O=[N+]([O-])c1ccc(N2CCOCC2)cc1NCc1ccccc1	-3.1	-24	2	16	9%
Cc1cc(C)cc(SCc2noc(C(=O)NCc3ccccc3)c2C(=O)NCc2ccccc2)c1	-0.3	.	.	0	-4%
CC1CCC2(CC1)NC(=O)N(CC(=O)Nc1nc(-c3ccc(F)cc3)cs1)C2=O (stereo not drawn)	.	-7	-11	-5	-5%
COc1ccc(C(=O)/C(=C\N(C)C)n2nc(C)cc2C)cc1	.	.	4	1	-11%
CC(=O)Nc1cc(-c2nc3ccccc3o2)ccc1Cl	-0.1	.	.	2	.
COc1ccc(F)cc1S(=O)(=O)N1CCCCC1	0.3	.	.	0	-3%
O=C1[C@H]2[C@@H](c3ccc(Cl)cc3)N3C(=O)N(c4cccc(F)c4)C(=O)[C@@]3(Cc3ccc(Cl)cc3)[C@H]2C(=O)N1C1CCCCC1	-1.6	.	.	-15	.
CN1CCCN(C(=O)c2ccc(Cl)c(S(=O)(=O)N(C)c3ccccc3)c2)CC1	3.0	-26	-2	9	-4%
CC1(C)CC(=O)c2sc(NC(=O)CN3CCOCC3)nc2C1	3.3	-16	3	-5	-7%
CCc1ccc(S(=O)(=O)Nc2ccc(-c3nc4cccnc4s3)cc2)s1	-1.7	-27	15	4	77%
CCOc1ccc(-c2ccc(SCc3ccccn3)nn2)cc1	1.5	.	-5	-4	8%
Cc1c(C(=O)N2CCN(c3ccccc3)CC2)oc2c1C(=O)CC(C)(C)C2	0.9	.	.	-9	.
CN(C)CCCNC(=O)/C(=N\O)c1ccccc1	-0.5	-4	17	-10	-10%
CCOC(=O)N1CCN(C(=O)CCn2c(=O)[nH]c3ccsc3c2=O)CC1	2.9	.	8	-1	-2%
O=C(c1ccco1)N1CCN(c2nc3ccsc3c(=O)s2)CC1	1.3	-31	1	1	-5%	Arbovirus anti repeat=12
CCCc1cc(=O)n2[nH]c(-c3ccc(OC)cc3)nc2n1	-0.7	-35	-6	52	-3%
O=C(Cc1ccc(S(=O)(=O)N2CCOCC2)s1)Nc1cc(C(F)(F)F)ccc1N1CCCC1	-0.7	.	.	-4	.
CCC(Sc1nccn1C)C(=O)Nc1nnc(C)s1 (stereo not drawn)	1.3	-51	5	6	5%	Arbovirus anti repeat=3
COc1ccc(Oc2nccc(-c3ccc(F)cc3)c2C#N)cc1	1.3	16	-4	3	4%
Cc1ccc(C)c(/C(O)=C2\C(=O)C(=O)N(CCCN3CCOCC3)C2c2cccnc2)c1 (stereo not drawn)	-1.6	5	3	.	-8%
Cc1c(NC(=O)COc2ccc3ccccc3c2)c(=O)n(-c2ccccc2)n1C	1.4	.	.	-5	.
CN(Cc1ccccc1)C(=O)c1ccccc1C(=O)O	-1.3	.	10	0	0%
C#CC(C)(CC)NC(=O)c1cc2cccc(CC=C)c2oc1=O (stereo not drawn)	-1.8	.	14	0	1%
Cc1ccc(C(=O)C2CCN(C(=O)c3ccc(C)cc3)CC2)cc1	-0.3	.	.	7	.
CCc1ccccc1NC(=O)N[C@@H](C)C(=O)O	0.6	-14	5	-9	0%
CCCCOc1ccc2c(C)cc(=O)oc2c1OCCCC	6.3	-6	-8	80	3%
CN(C)S(=O)(=O)c1cccc(NC(=O)COC(=O)CCC(=O)c2ccc(F)cc2)c1	7.8	-54	2	-2	-1%
Cc1ccc(CNC(=O)c2ccc(NC3=NC4CS(=O)(=O)CC4S3)cc2)cc1 (stereo not drawn)	-2.8	.	.	9	.
COc1cc(CNc2ccc(N3CCCC3)cc2)ccc1OCc1ccccc1	.	27	-11	12	10%
Fc1ccc(NCc2ccccc2F)cc1Cl	2.6	-28	-1	92	1%
Cc1nn(C)cc1CN(C)Cc1c(C(=O)N(C)Cc2ccccc2)nc2ccccn12	-4.9	.	-1	-1	-3%
O=C(Nc1ccc2oc(=O)ccc2c1)c1cc2ccccc2o1	-1.4	-18	-4	-9	58%
COc1cccc2[nH]c(C(=O)NN)c(N)c12	.	.	.	-4	-6%

High-throughput results as filed in PubChem.
